Compound activity: PubChem BioAssay, National Center for Advancing Translational Sciences (NCATS)
AmpC nodet inh: AmpC beta-lactamase inhibition, detergent-free assay. P00811. AmpC nitrocefin hydrolysis, absorbance 480 nm, no detergent; potencies from a single point are estimates. Potency, µM (highest dose often 28.7 µM), for inactives: top-dose activity change, negative = inhibition. actives 1.8% (n = 71,000). AID 585; active = falling curve, for most hits resting on a single point; inconclusive = weak or doubtful change; inactive = flat or rising curve; also: % of control where 0% means no effect; about half of the hits show no inhibition at the top dose; a quarter of the inactives give rising signals
Target sequence (P00811 whole entry, looked up): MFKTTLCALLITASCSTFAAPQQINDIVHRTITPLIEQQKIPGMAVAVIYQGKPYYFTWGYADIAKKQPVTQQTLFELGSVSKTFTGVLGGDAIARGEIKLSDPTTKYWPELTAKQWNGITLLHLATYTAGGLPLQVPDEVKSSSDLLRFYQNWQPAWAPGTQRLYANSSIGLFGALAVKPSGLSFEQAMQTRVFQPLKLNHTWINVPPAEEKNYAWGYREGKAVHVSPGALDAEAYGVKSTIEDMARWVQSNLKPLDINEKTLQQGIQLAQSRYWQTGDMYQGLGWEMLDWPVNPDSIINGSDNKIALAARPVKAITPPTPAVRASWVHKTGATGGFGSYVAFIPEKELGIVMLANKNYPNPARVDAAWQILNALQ
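Enzyme, pH 7.0 phosphate. Compound titrations were pre-incubated with AmpC for 15 min at room temperature before nitrocefin (stock 800 uM) addition; product formation was recorded at 480 nm every 20 s for 4 min.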
Active calls of the source: *; ? = inconclusive; & = joins results of further samples; [ ] = another dose, or the depositor's remark. Potency is read from the fitted curve at half-maximal effect.

SMILES | AmpC nodet inh
O=C(Oc1ccccc1)N1CCC2(CCN(Cc3nccs3)CC2)CC1 | -2%
CCOC(=O)N1CCC(NC(=O)Cn2cc3c(n2)CCCCC3)CC1 | 32%
COCC(=O)NCCc1ccc(S(N)(=O)=O)cc1 | -2%
COc1ccc(S(=O)(=O)N2CCN(C(=O)c3c(C)nn(-c4ccccc4)c3Cl)CC2)cc1 | 132%
Cc1cc(C)c2c(c1)cc(C)c1nnc(SCC(=O)Nc3cc(C)on3)n12 | 41%
C[C@@H](C(=O)NCc1ccccc1)[C@@H]1C[C@@]1(C)[C@@H](NC(=O)OCc1ccccc1)c1ccccc1 | 10%
COc1ccc(Cn2nnnc2C(c2ccccc2Cl)N2CCN(C3CCCC3)CC2)cc1 (stereo unspecified) | 82%
O=C(Nc1ccc(N2CCN(C(=O)c3ccco3)CC2)cc1)c1cccs1 | 5%
CCCCN(CC)S(=O)(=O)N1CCC(C(=O)NCCCN2CCOCC2)CC1 | 10%
CC(N)=NCCCC[C@H](N)C(=O)O | 6%&5%
CCCOc1ccc(/C(O)=C2/C(=O)C(=O)N(c3cc(C)on3)C2c2ccc(C(=O)OC)cc2)cc1 (stereo unspecified) | -24%
CCCCn1c2nc3ccccc3nc2c2c(=N)oc(C)nc21 | 48%
O=C(NS(=O)(=O)c1ccccc1)c1ccccc1F | 13%
Cc1cc(NC(=O)Nc2ccccc2)n(-c2ccccc2)n1 | -17%
COc1ccc(Cn2c(-c3ccco3)nc3oc4ccccc4c(=O)c3c2=O)cc1 | 9%
C=CCOC(=O)C1=C(C)Nc2nc3ccccc3n2C1c1ccncc1 (stereo unspecified) | 13%
Clc1ccccn1 | -7%
O=c1cc(-c2ccccc2)[nH]c2nc3ccccc3n12 | ?
CCn1c(=O)cc(O)c2c(=O)n(C)c(=O)n(C)c21 | 4%
CN(C)S(=O)(=O)c1cccc(C(=O)Nc2cc(Cl)ccc2O)c1 | -23%
Cc1nnc(SCC(=O)NCCc2ccccc2)[nH]c1=O | -6%
CCOC(=O)c1cnc2nc(Cc3ccccc3)[nH]n2c1=O | -5%
O=S1(=O)C=C(Sc2nnc(-c3ccccc3)o2)c2ccccc21 | -13%
Cc1[nH]c2ccc(O)cc2c1CCN | 14%&9%
Cc1cc(C)n(S(=O)(=O)c2ccc3ccccc3c2)n1 | 21%
COc1ccc(NC2SC(=O)N(CC(=O)O)C2=O)cc1 (stereo unspecified) | -8%
CC1=C(C(=O)Nc2ccccc2C)C(c2ccc(C)o2)C2=C(CCCC2=O)N1 (stereo unspecified) | -4%
COc1ccc(C(=O)OCC(=O)c2ccc(C)c(S(=O)(=O)N3CCOCC3)c2)cc1OC | 105%
CCOC(=O)CCC(NC(=O)c1cncc(O)c1)C(=O)OCC (stereo unspecified) | -10%
COc1ccc(NC(=O)CSc2nc3c(cc2C#N)CN(C)CC3)cc1 | 18%
CN(Cc1ccccc1)C(=O)CCS(=O)(=O)c1ccc2c(c1)n(C)c(=O)c(=O)n2C | 4µM*[single pt active]
CCOC(=O)c1c(C)c(C(=O)NCc2ccccc2OC)c(C)n1C | 53%
COc1ccc(Cn2c(CCC(=O)NCc3ccco3)nc3cccnc32)cc1 | 29%
COc1ccc(CCNC(=O)CN2CCC(n3nnc4cc(F)ccc43)CC2)cc1OC | 61%
O=c1c2ccccc2sn1-c1ccc(S(=O)(=O)N2CCCC2)cc1 | -6%
COCCNc1ncnc2ccc(-c3ccccc3OC)cc12 | 75%
CCCc1nnc(SCc2ccc(C(=O)OC)o2)n1N | 3%
COc1ccc(-c2nnc3n2N=C(C)CS3)cc1OC | 18%
CC(=O)n1nc(-c2ccccc2)nc1NCc1ccc(F)cc1 | 10%
COc1cccc(-c2csc(N3CCN(C(=O)Nc4ccccc4OC)CC3)n2)c1 | 17%
O=C1C2ON(c3ccc(Cl)cc3)C(c3ccco3)C2C(=O)N1c1ccccc1 (stereo unspecified) | -10%
CCCCNC(=O)C1C2C=CC3(CN(Cc4ccc(C)cc4)C(=O)C13)O2 (stereo unspecified) | 25%
c1ccc(-c2noc(CSc3nnc(Cc4cccs4)n3-c3ccccc3)n2)cc1 | 61%
COc1ccc(OCC(=O)OCC(=O)Nc2ccc(S(=O)(=O)N3CCCCC3)cc2)cc1 | -11%
CN1CCC[C@@H]1CCO[C@](C)(c1ccccc1)c1ccc(Cl)cc1 | 62%
Cc1ccc(S(=O)(=O)N2CCC(C(=O)O)(c3ccccc3)CC2)cc1 | 1%[5.75 µM]
Cc1cccc(-c2nnc(N)s2)c1 | -8%
CCCS(=O)(=O)N1CCC(C(=O)NC2CCCC(C)C2C)CC1 (stereo unspecified) | 12%
CCOC(=O)c1ccc(COC(=O)c2cc(=O)[nH]c3ccccc23)o1 | 22%
O=S(=O)(NCCSc1ccccc1)c1ccc2c(c1)OCCO2 | -9%
(continued)
SMILES | AmpC nodet inh
O=[N+]([O-])c1ccc(F)cc1F | -11%
CCCCC(CC)C(=O)NCCc1ccc(S(N)(=O)=O)cc1 (stereo unspecified) | 10%
CCCCNC(=O)CCn1nc(-c2ccccc2)ccc1=O | -2%
O=C(Nc1ccc(CN2CCCCC2)cc1)c1ccc2c(c1)OCO2 | -8%
C=CCn1c(COc2ccccc2)nnc1SCC(=O)NCC(=O)OCC | 20%
N#CC1(c2ccccc2)CCCN1C(=O)c1ccc(Br)o1 (stereo unspecified) | 9%
CC(=O)N1CCc2c(sc(NC(=O)c3ccc(S(=O)(=O)N(C)C)cc3)c2C#N)C1 | -1%
CCN(CC)S(=O)(=O)c1ccc(-c2nnco2)cc1 | -1%
CNC(=O)CN(C)S(=O)(=O)c1ccc(OC)c(Cl)c1 | 2%
O=S(=O)(N=S(N1CCCCC1)N1CCCCC1)c1ccccc1 | 27%
COc1ccc2c(c1)CC1(CN2C)C(=O)NC(=O)N(c2ccc(C)cc2)C1=O (stereo unspecified) | 10%
Cc1ccc(OCc2nnc(SCC(=O)Nc3sc(C)c(C)c3C#N)n2C)cc1 | 4%
CCc1ccc(N(CC)c2ncnc3nc[nH]c23)cc1 | -3%
Cc1cc(-c2ccccc2)c2c3c(cn2n1)c(=O)n(C)c(=O)n3C | 40%
COc1cc(C2C(C#N)=C(C)NC3=C2C(=O)CC(C)(C)C3)ccc1O (stereo unspecified) | 0%
CCOC(=O)C1CCCN(C(=O)c2cn(C)c3ccc(S(=O)(=O)N4CCCC4)cc3c2=O)C1 (stereo unspecified) | 16%
CCCOC(=O)Cn1c(=O)c2cc3c(=O)n(CC(=O)OCCC)c(=O)c3cc2c1=O | 5%
Cc1ccccc1OCC(O)CN (stereo unspecified) | 1%
CCOC(=O)c1c(C)[nH]c(C(=O)OC/C(O)=C(\C#N)c2nc3ccccc3[nH]2)c1C | 14%
O=C(NCCC1=CCCCC1)c1cnsn1 | 3%
O=C(c1cccc(F)c1)N1CCC2(CC1)CN(c1ccc(-c3ccccc3)cc1)C2 | 3%
O=C(Nc1ccc(-c2nc3ccccc3[nH]2)cc1)C1CCCO1 (stereo unspecified) | 4%
Cn1c(=O)c2c(ncn2CN2CCN(Cn3cnc4c3c(=O)n(C)c(=O)n4C)CC2)n(C)c1=O | -1%[5.75 µM]
CCCC(=O)N(c1ccc(F)cc1)C1C=CS(=O)(=O)C1 (stereo unspecified) | 8%
O=C(Nc1ccc(Cl)cc1)C1CC=CCC1C(=O)OCC(F)(F)C(F)F (stereo unspecified) | 0%
Clc1cccc(C(Cl)(Cl)Cl)n1 | -11%
O=C(c1ccco1)N1CCN(C(=O)c2ccc(Cn3cc(Br)cn3)o2)CC1 | 32%
COC(=O)c1cc2sc(Cl)cc2n1CC(=O)Nc1cccc(SC)c1 | ?
N=C(N)SCCc1cccc(CCSC(=N)N)c1 | -15%
COc1cccc(C(=O)Nc2c3c(nn2-c2cccc(C)c2C)CS(=O)C3)c1OC (stereo unspecified) | 61%
O=C(CCc1n[nH]c(=O)[nH]c1=O)N1CCOCC1 | 0%
COc1ccc(-c2nnc3n2-c2ccccc2SC3)cc1OC | 42%
Cc1noc(C)c1-c1cc(NCc2cccs2)ncn1 | 12%
CCCc1nc2ccccc2c(=O)n1-c1cccc(OC)c1 | 34%
Fc1ccccc1CSc1nnc(Cn2cnc3ccccc32)n1-c1ccccc1 | 50%
CCOc1ccc(N(CC(=O)NCc2ccc(OC)cc2)S(=O)(=O)c2c(C)noc2C)cc1 | 12%
COc1ccc(Cl)cc1N(CC(=O)Nc1ccccc1SC)S(C)(=O)=O | 74%
CC(C)c1ccc(-c2nc(N3CCCC3)nc3n[nH]c(N)c23)cc1 | 7%
CCCOC(=O)C1[C@H]2C(=O)N(C(C)c3ccc(OC)cc3)C[C@]23C=C[C@H]1O3 (stereo partly specified) | -20%
COc1ccc(Oc2ncc3nc(-c4cccs4)c(=O)n(Cc4cccs4)c3n2)cc1 | -10%
Cc1cccc(Nc2ccncc2S(=O)(=O)NC(=O)NC(C)C)c1 | -4%[12.8 µM]
Cc1ccn2cc(C(=O)Nc3ccccc3N3CCOCC3)nc2c1 | 38%
COCCn1c(SCC(=O)NC(=O)NCc2ccccc2)nc2ccccc21 | 18%
CCOC(=O)Cn1nnc(-c2ccc(SC)cc2)n1 | 7%
CNCCc1c[nH]c2ccc(O)cc12 | 3%
Cn1c(=O)[nH]c(=O)c2c1nc(CN1CCN(Cc3ccccc3)CC1)n2CC(N)=O | -1%
Cc1cccc(Cn2c(NCCO)nc3c2c(=O)n(C)c(=O)n3C)c1 | 7%
Cc1cc2nc(SCC(=O)O)nc(C)c2cc1C | -4%
COc1ccc(NC(=O)Cn2cccc2)c(OC)c1 | 12%
Cc1ccccc1C(N)=O | -1%
New compounds follow.
SMILES | AmpC nodet inh
COCc1cc(C)nc(SCC(=O)Nc2ccccc2C)c1C#N | 14%
NC(=O)CCCCC(N)=O | -14%
Nc1cc(N)nc(SCCOc2ccccc2)n1 | -11%
Nc1cc(Cl)c(N)c(Cl)c1 | -24%
CCC(OC(=O)c1cc2sccc2n1C)C(=O)NCC1CCCO1 (stereo unspecified) | 57%
CN(C)CC/C=C1\c2ccccc2COc2ccccc21 | 26%
O=C(c1ccccc1)c1ccc(C(=O)N2CCOCC2)cc1 | 9%
CCCC(=O)c1ccc(N2CCN(S(=O)(=O)c3ccccc3)CC2)c(F)c1 | -8%
Cc1ccc(N(CC(=O)Nc2ccc3c(c2)OCCO3)S(=O)(=O)c2c(C)noc2C)cc1 | -4%
CCOC(=O)c1nnn(-c2nonc2N)c1-c1cccc2ccccc12 | 7%

Brought forward from above: 6 compounds, then new ones.
SMILES | AmpC nodet inh
CCC(OC(=O)c1cc2sccc2n1C)C(=O)NCC1CCCO1 (stereo unspecified) | 57%
CN(C)CC/C=C1\c2ccccc2COc2ccccc21 | 26%
O=C(c1ccccc1)c1ccc(C(=O)N2CCOCC2)cc1 | 9%
CCCC(=O)c1ccc(N2CCN(S(=O)(=O)c3ccccc3)CC2)c(F)c1 | -8%
Cc1ccc(N(CC(=O)Nc2ccc3c(c2)OCCO3)S(=O)(=O)c2c(C)noc2C)cc1 | -4%
CCOC(=O)c1nnn(-c2nonc2N)c1-c1cccc2ccccc12 | 7%
O=S(=O)(NCc1cccnc1)c1cc(Cl)ccc1Cl | 10%
CS(=O)(=O)N1CCC2(CCN(c3cccc(-c4ccccc4)c3)CC2)CC1 | 24%
COc1ccc(C(=O)Nc2nccs2)cc1OC | 2%
Cc1ccc(NC(=O)CSC2=C(C#N)C(c3ccc4c(c3)OCO4)C3=C(CCCC3=O)N2)c(C)c1 (stereo unspecified) | -23%
CCOC(=O)CNc1ncnc2nc[nH]c12 | -8%
CCOC(=O)c1ccc(NS(=O)(=O)N2CCCCCC2)cc1 | -16%
Cc1ccc(S(=O)(=O)NCc2ccc(C(=O)N3CCN(c4ccccn4)CC3)cc2)cc1 | 51%
O=C(NCc1cccc(C(F)(F)F)c1)C1CCN(c2ncccn2)CC1 | 16%
O=C(Nc1ccc2oc(-c3ccncc3)nc2c1)c1c(F)c(F)c(F)c(F)c1F | 5%
COc1ccccc1CC(=O)N(CCC#N)CCC#N | 19%

Looked up by compound from the list above:
SMILES | AmpC nodet inh
Cc1ccc(N(CC(=O)Nc2ccc3c(c2)OCCO3)S(=O)(=O)c2c(C)noc2C)cc1 | -4%
CCCOC(=O)Cn1c(=O)c2cc3c(=O)n(CC(=O)OCCC)c(=O)c3cc2c1=O | 5%
COc1ccc(NC2SC(=O)N(CC(=O)O)C2=O)cc1 (stereo unspecified) | -8%
CN(Cc1ccccc1)C(=O)CCS(=O)(=O)c1ccc2c(c1)n(C)c(=O)c(=O)n2C | 4µM*[single pt active]
COc1ccc(NC(=O)Cn2cccc2)c(OC)c1 | 12%
Cc1cccc(-c2nnc(N)s2)c1 | -8%

(next part)
SMILES | AmpC nodet inh
CC1=C(C)C(=O)NC(Nc2nc(C)c3cc(C)cc(C)c3n2)N1 (stereo unspecified) | 75%
C(=N\n1cnnc1)/c1ccc(OC2CSC2)cc1 | 4%
COc1ccccc1-c1cc(=O)c2cc(O)ccc2o1 | -1%
O=C/C=C/c1ccccc1 | -6%&-8%
N#Cc1ccccc1NC(=O)COC(=O)c1ccc2c(c1)OCCO2 | 0%
Cc1ccc(-c2cc(C(=O)N3CCN(c4ncccn4)CC3)c3ccccc3n2)cc1 | 109%
CCn1c(CSc2nccn2C)nc2cc(C(=O)O)ccc21 | -10%
CC1(C)CC(=O)C2=C(C1)OC(N)=C(C#N)C21CCN(Cc2ccccc2)CC1 | 8%
O=C(CCS(=O)(=O)c1ccc(Cl)cc1)N1CCN(S(=O)(=O)c2cccs2)CC1 | 51%
Cc1ccc(-c2nsc3c(N4CCC(C(N)=O)CC4)ncnc23)cc1 | 26%
Cc1cc2ccc(OC(=O)c3ccc(N=C(N)N)cc3)cc2oc1=O | 6%[5.75 µM]
O=C(CSc1nc2ccsc2c(=O)n1-c1ccccc1)N1CCCC1 | 9%

An excerpt of these results, as a markdown table:
| canonical_smiles | AmpC nodet inh |
| --- | --- |
| C[C@@H](C(=O)NCc1ccccc1)[C@@H]1C[C@@]1(C)[C@@H](NC(=O)OCc1ccccc1)c1ccccc1 | 10% |
| COc1ccc(Cn2nnnc2C(c2ccccc2Cl)N2CCN(C3CCCC3)CC2)cc1 (stereo unspecified) | 82% |

Only part of the results is shown; rates above refer to the full screens.
